Bioassay records from PubChem BioAssay.
Biofilm kill mix = mixtures killing C. albicans biofilm. AID 1242. C. albicans biofilm persisters + clotrimazole, fluorescence viability; primary screen in compound mixtures of four per well. 120,000 tested, 0.02% active. inhibition, % at 7.6 µM;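 active = inhibition above 30.3% in the primary screen of four-compound pools, then above 30% when the compound was retested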;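 also: compounds exposed to preformed 24 h biofilms for 48 h; the number belongs to the whole pool; some results filed as inactive read as strong as hits; inactives centre near 12; 0% = biofilm with clotrimazole alone and 100% = kill control; retested singly at about 60 µM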
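Assay system: C. albicans biofilms / Medium: RPMI/MOPS medium, pH 7.0 / Schedule: biofilm formation 24 h, compound exposure 48 h, 37 °C / Measured by: Alamar Blue fluorescence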
* marks the source's active call; other numbers are inactive results.

SMILES | Biofilm kill mix
CCc1ccc(S(=O)(=O)c2nnn3c2nc(NCCNC(C)=O)c2ccccc23)cc1 | 8
O=C(NCc1n[nH]c(=S)n1-c1ccc(Br)cc1)c1ccc(S(=O)(=O)N2CCOCC2)cc1 | 14
CCc1ccc(-c2cc(C(=O)NN3CCN(C)CC3)c3ccccc3n2)cc1 | 15
O=C(O)CCC(=O)N1N=C(c2c(-c3ccccc3)c3cc(Cl)ccc3[nH]c2=O)CC1c1ccco1 (centres undefined) | 14
O=C(NCCOc1ccccc1Cl)c1ncn[nH]1 | 11
CCNC(=S)Nc1ccc(NC(=O)c2ccccc2O)cc1 | 14
O=C(Nc1ncccn1)c1ccc([N+](=O)[O-])cc1 | 3
C/C(=N\NC(=O)c1ccc([N+](=O)[O-])c(C)c1)c1ccccc1Cl | 16
CCN(CC)CCNC(=O)C1CCCCN1S(=O)(=O)c1cccc([N+](=O)[O-])c1 (centres undefined) | 7
CN(C)/C=N/S(=O)(=O)c1ccc(Cl)c(Cl)c1 | 17
COc1ccc(-c2nnc3ccc(SC(C(C)=O)C(C)=O)nn23)cc1OC | 6
Cc1cccc(NC(=O)COC(=O)c2ccc([N+](=O)[O-])o2)c1C | 17
O=C(N/N=C/c1ccc2c(c1)OCO2)C(=O)Nc1ccc2ccccc2c1 | 9
O=C(c1cc2c(=O)n3ccccc3nc2s1)N1CCc2ccccc2C1 | 20
Cc1ccc(OCCN2C(=O)C(=O)c3cc(C)ccc32)cc1 | 27
CCOC(=O)C1CCCCN1Cc1ccc(OC)c(OC)c1 (centres undefined) | 7
O=C(Nc1ccc(Br)cc1Cl)N1CCOCC1 | 13
CC1=C(C)CC(C(=O)N2CCN(C/C=C/c3ccccc3)CC2)C(C(=O)O)C1 (centres undefined) | 25
COC(Cn1cc(C)c(=O)[nH]c1=O)OC | 17
CCn1c(CSCc2ccc(Cl)cc2)nnc1SCC(=O)Nc1cccc(C(=O)O)c1 | 12
CCc1ccc(NC(=O)CSCc2nc(N)nc(Nc3ccccc3CC)n2)cc1 | -8
COc1ccccc1NC(=S)N1CCN(C/C=C/c2ccccc2)CC1 | 7
CCCN1Cc2cccc(C(=O)Nc3ccc(-c4nc5ccccc5[nH]4)cc3)c2C1=O | 9
CCOc1ccc(-n2c(SCC(=O)N3CCc4ccccc43)nnc2-c2c[nH]c3ccccc23)cc1 | 7
O=C(c1ccoc1)N1CCC2(CC1)Oc1ccc(F)cc1C(=O)C21CC(c2ccccc2)=NO1 (centres undefined) | 11
COc1ccccc1NC(=S)NC(=O)C1CC1 | 12
Cc1ccc2nc(N3CCN(c4ccccc4F)CC3)c(C=O)c(=O)n2c1 | 4
COC(=O)CSc1nc(-c2ccccc2)nc2ccccc12 | 12
NCCn1c(-c2ccccc2)cc(C(=O)O)c1-c1ccccc1F | -3
COc1ccc(CC(=O)Nc2cc(C)ccc2O)cc1OC | 20
CC(Sc1nnnn1C)C(=O)NC1CCCc2ccccc21 (centres undefined) | 1
COc1cccc(C(c2c(N)n(C)c(=O)n(C)c2=O)C(C)[N+](=O)[O-])c1 (centres undefined) | 21
OC(c1ccccc1)(c1ccccc1)C1CCN(C(=S)NC2CCCC2)CC1 | -2
COc1ccccc1/C=N/NC(=O)CC(=O)NC1CCCCC1 | 15
COc1ccc(-n2cc(-c3ccccc3)c3c(NN4CCOCC4)ncnc32)cc1 | 11
CCc1ccc(-c2csc(NC(=O)c3cccnc3)n2)cc1 | 13
CCOC(CNC(=O)Cc1c(C)nc2c(-c3ccccc3)c(C)nn2c1C)OCC | 14
Nc1c2c(nc3sc4c(c13)CCCC4)CCCCCC2 | 9
COc1ccc(C)cc1N(CC(=O)Nc1cccnc1)S(=O)(=O)c1ccc(C)cc1 | 20
C=CCn1c(SCc2cc([N+](=O)[O-])cc3c2OCOC3)nc2cc(C(=O)O)ccc2c1=O | 24
Cc1ccc(CC(=O)Nc2ccncc2)cc1 | 1
Cc1ccc(C2NC(=S)NC3=C2C(=O)CC(C)(C)C3)cc1 (centres undefined) | 11
CN(C)CCOC(=O)CC12CC3CC(C1)CC(CC(=O)OCCN(C)C)(C3)C2 | 7
COC(=O)c1cc(C(=O)OCC(=O)NC2CCS(=O)(=O)C2)cc([N+](=O)[O-])c1 (centres undefined) | 2
O=c1c([N+](=O)[O-])c(N2CCOCC2)c2ccccc2n1Cc1ccccc1 | 21
CN(C(=S)Nc1cccnc1)c1ccc(O)cc1 | 7
O=C(CSc1nc2c(cnn2-c2ccccc2)c(=O)[nH]1)NC1CCS(=O)(=O)C1 (centres undefined) | 8
CCOc1ccc(Br)cc1S(=O)(=O)Nc1ccc(C(=O)OCC(=O)Nc2ccc(C#N)cc2)cc1 | 25
CC(C)CCNC(=O)c1ccc(OC2CCN(S(=O)(=O)N(C)C)CC2)cc1 | -6
CC(C)(C)C1CCC(OC(=O)C[N+]2(C)CCCCC2)CC1 (centres undefined) | 15
COc1cc(NC(=O)c2cnn3c(C(F)F)cc(C4CC4)nc23)c(OC)cc1Cl | 17
NC(=O)C(CCC(=O)c1ccc(Br)cc1)S(=O)(=O)c1ccccc1 (centres undefined) | 10
CC(=O)Nc1ccc2nc(CN3CCN(CC(C)C)C(CCO)C3)ccc2c1 (centres undefined) | 22
COc1ccc(-c2c([C@H]3[C@@H]4C=CCC[C@@]4(C)C(=O)N3Cc3ccccc3)ccc3ccccc23)cc1OC | 13
O=C(N/N=C/C(Cl)=C/c1ccccc1)c1cnccn1 | 9
c1ccc(CNc2nnnn2-c2ccccc2)cc1 | 9
O=C(c1ccc([N+](=O)[O-])cc1)N1CCCC1 | 24
C=CCNS(=O)(=O)c1ccc2c(c1)n(C)c(=O)n2C | 10
Cc1cc2nc3c(=O)[nH]c(=O)[nH]c3nc2c([N+](=O)[O-])c1N | -4
CCn1ccc(-c2ccccc2)c(C#N)c1=O | 12
Additional records
SMILES | Biofilm kill mix
COc1ccc(OC)c(/C=N/c2c(-c3ccc(O)c(OC)c3)nc3ccccn23)c1 | 2
COc1ccc(C2=CC3=C(Br)C(=O)C(C)(OC(=O)C4CCCC4)C(=O)C3=CO2)cc1 (centres undefined) | 18
O=S(=O)(CCc1nc2ccccc2[nH]1)c1ccc(Cl)cc1 | 11
O=C(Cc1ccc(Cl)cc1)Nc1ccc(Br)cc1 | 1
CN(C)/C=N/c1sc2c(c1C#N)CCCC2 | 13
Cc1cccc2c1c1ccc3c(c1n2C)C(=O)C=CC3=O | 27
CC1CCCC(NC(=O)CCC(=O)c2ccc(F)cc2)C1C (centres undefined) | 16
O=[N+]([O-])c1nn(-c2ccc3c(c2)OCCO3)n(O)c1=NCc1ccc(F)cc1Cl | 13
CC(=O)NC(CC(=O)NC12CC3CC(CC(C3)C1)C2)c1ccccc1 (centres undefined) | 6
NC(=O)c1oc2ccccc2c1NC(=O)C1COc2ccccc2O1 (centres undefined) | 6
Cc1ccc2nc(-c3ccc(NC(=O)CSc4nccc(=O)[nH]4)cc3)sc2c1 | 15
NC(=O)COC(=O)[C@@H]1CC(O)CN1S(=O)(=O)c1ccc2c(c1)OCCO2 (some centres undefined) | 8
CC1(C)CC(=O)C(N=Nc2ccc(Br)cc2)=C(O)C1 | 0
CCNC(=O)/C(=C/c1cccc([N+](=O)[O-])c1)NC(=O)c1ccc(C)cc1 | 8
CCCCC(CC(C)O)c1n[nH]c(=S)n1-c1ccccc1 (centres undefined) | 14
C=CCC1CCCCC12NC(=O)N(c1ccccc1)N2 (centres undefined) | 8
O=C(Nc1cccc2ccccc12)/C(=C/c1cccc([N+](=O)[O-])c1)NC(=O)c1cccs1 | -4
CC(=O)c1cccc(S(=O)(=O)N2CCN(c3ccccc3F)CC2)c1 | 13
Cc1ccc(-c2nn(-c3ccccn3)c(=O)c3ccccc23)cc1C | 19
CC1(C2CC2)NC(=O)N(CC(=O)Nc2ccccc2-c2ccccc2)C1=O (centres undefined) | 12
COc1cccc(SCC2CSc3nc4ccccc4c(=O)n32)c1 (centres undefined) | 8
CC1(C)Cc2cccc(OCC(=O)N3CCN(c4ccccc4)CC3)c2O1 | 20
Cc1ccc(NC(=O)c2oc3ccc(S(=O)(=O)N4CCOCC4)cc3c2C)c(C)c1 | 12
CN1CCN(C(=O)C23CC4CC(C2)CC(c2ccccc2)(C4)C3)CC1 | 2
O=C(CSc1nc(-c2ccc(F)cc2)cc(C(F)(F)F)n1)NCc1ccco1 | 9
COc1ccc(-c2cnc3nc(/N=C/N(C)C)nn3c2/N=C/N(C)C)cc1 | 12
CCCCCc1cc(=O)oc2c(C(CCN3CCN(c4ccccc4)CC3)c3ccc4c(c3)OCO4)c(OC)cc(OC)c12 (centres undefined) | 14
C/C(=N\Nc1nc2ccc(Cl)cc2o1)c1ccccc1 | 24
Cc1cc2cc(CNC(=O)c3cccs3)ccc2n1C | 22
COc1cc(NC(=O)c2nccnc2N)cc(C(=O)Nc2cccc(C(F)(F)F)c2)c1 | 14
O=c1[nH]c(SCc2ccc(Cl)cc2)nc2ccsc12 | 15
Cc1cc(NS(=O)(=O)c2ccc(NC(=O)CSc3nc4sc(C(=O)O)c(C)c4c(=O)[nH]3)cc2)no1 | -3
CN1CCN(C(=S)NC(=O)c2ccco2)CC1 | 49
CCOc1cc(/C=C2\SC(=N)N(c3nccs3)C2=O)ccc1OCCN1CCOCC1 | 21
O=C(CC1Sc2ccccc2NC1=O)NCc1ccc(Cl)cc1 (centres undefined) | 13
COCCNC(=S)Nc1ccccn1 | 10
COc1ccc(N2CS(=O)CC2=O)cc1 (centres undefined) | -5
O=C(Nc1ccccc1)Nc1ccc2ocnc2c1 | 18
O=C(O)CCN1C(=O)c2ccc(NC(=O)CSCc3ccccc3)cc2C1=O | 14
CC(NC(=O)CCc1nnc(C2CCCCC2)o1)c1ccc(F)cc1 (centres undefined) | 6

Looked up by structure from the list above, 5 records:
SMILES | Biofilm kill mix
O=C(Nc1ccccc1)Nc1ccc2ocnc2c1 | 18
COc1ccc(N2CS(=O)CC2=O)cc1 (centres undefined) | -5
CC(NC(=O)CCc1nnc(C2CCCCC2)o1)c1ccc(F)cc1 (centres undefined) | 6
COc1ccc(-c2cnc3nc(/N=C/N(C)C)nn3c2/N=C/N(C)C)cc1 | 12
Cc1ccc(NC(=O)c2oc3ccc(S(=O)(=O)N4CCOCC4)cc3c2C)c(C)c1 | 12

Reformatted field by field: part of the list above.
CC1CCCC(NC(=O)CCC(=O)c2ccc(F)cc2)C1C (centres undefined)
  Biofilm kill mix: 16

O=[N+]([O-])c1nn(-c2ccc3c(c2)OCCO3)n(O)c1=NCc1ccc(F)cc1Cl
  Biofilm kill mix: 13

CC(=O)NC(CC(=O)NC12CC3CC(CC(C3)C1)C2)c1ccccc1 (centres undefined)
  Biofilm kill mix: 6

NC(=O)c1oc2ccccc2c1NC(=O)C1COc2ccccc2O1 (centres undefined)
  Biofilm kill mix: 6

Single values from above:
`Cc1ccc2nc(N3CCN(c4ccccc4F)CC3)c(C=O)c(=O)n2c1` @ Biofilm kill mix = 4
`CN(C)CCOC(=O)CC12CC3CC(C1)CC(CC(=O)OCCN(C)C)(C3)C2` @ Biofilm kill mix = 7
`COc1ccc(-c2cnc3nc(/N=C/N(C)C)nn3c2/N=C/N(C)C)cc1` @ Biofilm kill mix = 12
`CC1=C(C)CC(C(=O)N2CCN(C/C=C/c3ccccc3)CC2)C(C(=O)O)C1` (centres undefined) @ Biofilm kill mix = 25
`Cc1ccc(C2NC(=S)NC3=C2C(=O)CC(C)(C)C3)cc1` (centres undefined) @ Biofilm kill mix = 11
`O=S(=O)(CCc1nc2ccccc2[nH]1)c1ccc(Cl)cc1` @ Biofilm kill mix = 11

Additional entries follow.
SMILES | Biofilm kill mix
CC(=O)Nc1ccccc1C(F)(F)F | 13
COC(=O)c1ccc(C(=O)OCc2nc3cc4ccccc4cc3[nH]2)cc1 | 15
Cc1ccn2c(NC3CCCCC3)c(C(C)C)nc2c1 | 9
COc1ccccc1Oc1ncnc2sccc12 | 13
COc1ccc(OCCCC(=O)Nc2cccc(C(C)=O)c2)cc1 | 13
CCN1CCC2(CCN(Cc3cn[nH]c3-c3ccc(OC)c(F)c3)C2)C1 (centres undefined) | 12
Cc1noc(C)c1CN(C(=S)NC1CC2CCC1C2)c1ccccc1 (centres undefined) | 14
COc1ccc2[nH]cc(CCn3ccc(O)c(C/C=C/c4ccccc4)c3=O)c2c1 | 14
COc1cccc2cc(C(C)N(CCCN3CCOCC3)C(=S)Nc3cc(C)ccc3C)oc12 (centres undefined) | 25
O=C(O/N=C(/c1ccccc1)c1ccncc1)c1ccccc1[N+](=O)[O-] | 13
CC(=O)Oc1ccc2c(=O)c(Oc3ccccc3)coc2c1OC(C)=O | 6
COc1ccc(NC(=S)N(CCCN2CCN(C)CC2)Cc2cccs2)cc1 | -12
CC1CC(=O)Nc2ccccc2N1S(=O)(=O)c1ccc(C#N)cc1 (centres undefined) | 17
CCN(CC)S(=O)(=O)c1ccc(NC(=O)C2CCCN(C(=O)c3ccc(Cl)cc3)C2)cc1 (centres undefined) | 11
COc1ccc(CC(NC(C)=O)C(=O)NC2CCN(C(=O)c3ccc(OC)c(OC)c3)CC2)cc1OC (centres undefined) | 13
CC(C)(C)NC(=O)C1CCN(S(=O)(=O)c2cccc(C(F)(F)F)c2)CC1 | 5
Cc1c(/C=C/C(=O)c2ccc(C(C)C)cc2)cnn1C | 6
CCCCCC(=O)NNC(=S)NC(=O)c1ccccc1[N+](=O)[O-] | 14
CCc1ccc(NC(=O)CSc2nc3c(c(=O)n(C)c(=O)n3C)n2C)cc1 | 18
C/C(=N\NC(=O)c1c(C)nc2ccccn12)c1ccc(N2CCOCC2)cc1 | 8

Some of the compounds tested. The share of hits here may be higher or lower than overall.
